Assay outcomes deposited in PubChem BioAssay by Fisher Drug Discovery Resource Center.
NPYLR7 agonist = mosquito NPYLR7 agonism | HEK293T NPYLR7/Galpha15, GCaMP6s calcium fluorescence | activation, % at 10 µM | 270,000 tested, 0.15% active; in the data active = activation above about 40%;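 note: 0% = vehicle and 100% = reference agonist at the receptor; some compounds past the cut are filed as inactive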
NPYLR7 agonist max-min = also measured in NPYLR7 agonist; calls as there; activation, %; measured here: Max-Min RFU normalised activation; some inactives read as strong as hits;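 span of the calcium signal over five minutes; 0% = vehicle and 100% = native peptide agonist; compound fluorescence can raise it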
* = called active by the depositor; & = joins results of further samples. An excerpt; rates above refer to the full screens.

A first look (6 entries):
Structure | NPYLR7 agonist | NPYLR7 agonist max-min
Cc1ccc(OCC(=O)N2CCc3c(sc4ncnc(N)c34)C2)c(C)c1 | 1 | 3
CC(C)(C)c1cc2nc(-c3ccccc3Cl)cc(C(=O)N3CCCC3)n2n1 | 12 | 9
CC(C)OC(=O)CCC/C=C\C[C@@H]1[C@@H](CC[C@@H](O)CCc2ccccc2)[C@H](O)C[C@@H]1O | -10 | -15
CC(C)Oc1ccc2c(=O)c(-c3ccc(F)cc3)coc2c1 | 12 | 13
COc1ccc(CN2CCNC(=O)C2CC(=O)NCCc2cscn2)cc1OC (stereo unspecified) | 1&-1 | -2&-2
O=[N+]([O-])c1cccc(/C=N/Nc2nc(Nc3ccc(Cl)cc3)nc(N3CCOCC3)n2)c1 | -10 | -15

This part in full, previewed entries included:
Structure | NPYLR7 agonist | NPYLR7 agonist max-min
Cc1ccc(OCC(=O)N2CCc3c(sc4ncnc(N)c34)C2)c(C)c1 | 1 | 3
CC(C)(C)c1cc2nc(-c3ccccc3Cl)cc(C(=O)N3CCCC3)n2n1 | 12 | 9
CC(C)OC(=O)CCC/C=C\C[C@@H]1[C@@H](CC[C@@H](O)CCc2ccccc2)[C@H](O)C[C@@H]1O | -10 | -15
CC(C)Oc1ccc2c(=O)c(-c3ccc(F)cc3)coc2c1 | 12 | 13
COc1ccc(CN2CCNC(=O)C2CC(=O)NCCc2cscn2)cc1OC (stereo unspecified) | 1&-1 | -2&-2
O=[N+]([O-])c1cccc(/C=N/Nc2nc(Nc3ccc(Cl)cc3)nc(N3CCOCC3)n2)c1 | -10 | -15
O=C(NC1CCSc2ccccc21)C12CC3CC(CC(Cl)(C3)C1)C2 (stereo unspecified) | -2 | -3
Cc1ccc(-c2ccc(C(=O)N3CCN(C)CC3)c(N3CCOCC3)n2)cc1C | 7 | -2
Cc1ccc2nc(COC(=O)CC34CC5CC(CC(Br)(C5)C3)C4)cc(=O)n2c1 | 3 | -5
Cn1cccc1-c1cc(C(=O)NCCC(=O)Nc2ccccc2F)[nH]n1 | -2 | 2
CCCS(=O)(=O)NCCc1cc2ccc(C)c(C)c2[nH]c1=O | 9 | 4
Cc1nsc(NC(=O)NC2CCN(Cc3ccccc3Cl)CC2)n1 | 6 | 5
C=CCN(Cc1ccc(C)s1)C(=O)c1c(Cl)cnn1CC | -4 | -7
C#CCOCC(O)CN(CCC(C)C)Cc1c(-c2ccccc2)noc1N1CCc2ccccc2C1 (stereo unspecified) | 2 | 7
CC(C)N(C)c1ccc(NC(=O)c2ccc[nH]c2=O)cc1F | 8 | 6
O[C@@H]1CN(Cc2cccc3[nH]ccc23)CC[C@H]1c1ccc(F)cc1 | 6 | 3
O=c1cc(C(F)(F)C(F)(F)C(F)(F)C(F)(F)F)nc(-c2ccccc2)[nH]1 | 1 | 0
O=C(c1ccc(F)cc1Br)N1CCC(NS(=O)(=O)c2ccccc2)CC1 | 0 | 14
C=CCN(C(=O)C1CCc2ccccc2C1)C(C)C (stereo unspecified) | -3 | -2
O=C(O)c1ccc(-c2c(C(F)(F)F)oc3cc(O)ccc3c2=O)cc1 | 5 | 5
CC(=O)N1CCc2c(nc(-c3cccnc3)nc2NCCc2ncc[nH]2)C1 | 6 | 4
CC(O)CNc1nccc(CCC(F)(F)F)n1 (stereo unspecified) | 4 | 3
Cc1ccc(-n2nc3c(c2NC(=O)c2ccc4ccccc4c2)CS(=O)(=O)C3)cc1 | -4 | -4
Nc1cc(-n2cnnc2)ccc1Cl | 4 | -1
O=C(c1ccnc(-c2ccc(-c3ccn[nH]3)cc2)c1)N1CCCCC1 | -3 | -2
O=C(Nc1cccc(N2CCOC2=O)c1)c1cc2c(s1)CCC2 | -1 | 0
O=C(Nc1ccc(N2CCN(C(=O)C3C[C@H]3c3ccccc3)CC2)nc1)c1ccccc1F (stereo partly specified) | -6 | -4
CCc1ccc(C=c2sc(=C(C#N)C#N)n(C)c2=O)cc1 | 8 | 7
N#Cc1c(F)cccc1NC1CCN(C(=O)c2ccoc2)CC1 | -11&2 | -8&1
Cc1cc(-n2cnnc2)ncc1-c1cccc(C(F)(F)F)c1 | -3 | -7
COC(=O)c1ccc(COC(CN2CCN(C(=O)C3CCN(C(C)=O)CC3)CC2)c2ccc(Cl)cc2)cc1 (stereo unspecified) | 0 | 3
CCSCCOC(=O)C1=C(C)N(C)C(=O)NC1c1ccccc1OCc1ccccc1 (stereo unspecified) | -3 | -8
CC(C)CCCC(C)NC(=O)C1CCN(S(=O)(=O)c2ccccc2F)CC1 (stereo unspecified) | 3 | 2
COc1ccc2c3c1CN(C1CCOCC1)CC3=CC(C)(C)CO2 | 6 | 11
O=c1c2c(F)c(F)c(F)c(F)c2on2c3c(nc12)CCCC3 | 10 | 4
O=C(C1CCCC1)N1CCN(Cc2ccc(-c3noc(C4CCCC4)n3)cc2)CC1 | 4 | -1
Cc1ccsc1CN(C)Cc1coc2ccccc2c1=O | 1 | -2
O=C(O)c1coc(CN(Cc2ccccc2)Cc2cccc(Cl)c2Cl)n1 | 5 | 4
CC(C)(C)c1nn(-c2ccc(F)cc2)c2c1C(c1ccccc1Cl)SCC(=O)N2CC(=O)NCc1ccc(F)cc1 (stereo unspecified) | 24 | 20
Cc1nc(-n2ncc(C#N)c2N)c2cnn(-c3ccccc3)c2n1 | 6 | 6
CC(NC(=O)N1CCCC(N(C)C)C1)c1cccc(-n2ccnc2)c1 (stereo unspecified) | 6 | 4
COC(=O)c1c(N2C(=O)CC(Sc3ncccc3C(=O)O)C2=O)sc2c1CCC(C)C2 (stereo unspecified) | -13 | -23
N#Cc1cc2c(cc1NS(=O)(=O)c1ccc(-c3ccccc3)cc1)OCO2 | -1 | -2
C=CC[C@@H]1CC=C[C@@H](c2ccccc2)N1C(=O)c1ccc(NC(C)=O)nc1 | 2 | -3
Cc1ccc(N2CCN(C(=O)c3ccccc3N3CCC(N)CC3)CC2)cc1C | -2 | 10
COc1ccccc1C(=O)N1CCCN(c2nc(CCC(C)C)nc3c2cnn3-c2cccc(Cl)c2)CC1 | 35 | 41
Cc1oc(-c2cccs2)nc1CSc1nnc(-c2cccs2)n1CC(N)=O | 3 | 0
O=S(=O)(NC1CCCCCCC1)c1ccc(Cl)cc1 | 20 | 19
Cc1c(-c2ccc(Cl)cc2)nc2n1CCCC2 | 0 | -3
COc1ccccc1C(=O)N1CCN(c2cc(C)nc(-c3cccc(F)c3)n2)CC1 | 22 | 31
N=c1c2c(-c3ccccc3)c(-c3ccccc3)n(Cc3ccco3)c2ncn1CCCN1CCOCC1 | -8 | -12
CC(C)c1cccc2sc(Cl)nc12 | -23 | -24
Cc1c(N)c(=O)n(-c2ccccc2)n1C | -14&2 | -21&-4
O=C(CCSCCC(=O)NCc1ccco1)NCc1ccco1 | 5 | 4
N#CCc1nc2ccccc2o1 | 2 | 1
CCCC1CN(c2ccc(OC)cc2)C(=O)c2cccnc2O1 (stereo unspecified) | -5 | 1
CCOC(=O)Cn1c(=O)c2c(nc3n(CCOC)c(C)cn23)n(C)c1=O | 16 | 3
COC(=O)c1sc2nc(C)nc(N3CCC(C(=O)OC)CC3)c2c1C | -4 | -5
CCOCCCNC(=O)c1cc(NC(=O)c2ccc(Cl)cc2Cl)ccc1N1CCCCC1 | 0 | 4
Cc1ccc(-c2ccc(=O)n(CCN3CCCCC3)n2)cc1 | 11 | 6

(listing goes on)
Structure | NPYLR7 agonist | NPYLR7 agonist max-min
COCCCNC(=O)c1cn(CCOC)cc2c(=O)n(-c3ccccc3)nc1-2 | 4 | 2
Cc1cc(C)c(C)c(S(=O)(=O)N2CCN(Cc3cc(=O)c(OCc4ccc(C(C)(C)C)cc4)co3)CC2)c1C | 27 | 13
CC1=C(C(=O)OCCc2ccccc2)C(c2ccc(N(C)C)cc2)NC(=O)N1 (stereo unspecified) | 1 | -7
NS(=O)(=O)c1ccc(CCNC(=O)Cn2c3c(c4ccccc42)CCC3)cc1 | 2 | -1
Cc1ccc(OCC(=O)N2CCC(n3c(C)nc4ccc(C)cc43)CC2)cc1 | 5 | 13
Cc1cc(C)cc(OCC(=O)NC(C(N)=O)c2ccccc2)c1 (stereo unspecified) | 2 | 1
CN(C)CCCNCCP(=O)(c1ccccc1)c1ccccc1 | 6 | 8
CCN(CC(=O)NC(C)(C)C)C(=O)Cn1c(=O)c2c(ncn2C)n(C)c1=O | 2 | 2
COc1ccc(Oc2cc(N(C)Cc3ccccc3)ncn2)cc1 | -14 | -10
Cc1ccc(-n2ncc3c(=O)n(NC(=O)c4c(F)cccc4Cl)cnc32)cc1C | 8 | 6
c1cnn(-c2nc(N3CCOCC3)nc(N3CCOCC3)n2)c1 | 11 | 10
O=C1CN(CC(=O)Nc2cc(Cl)c(Cl)cc2Cl)CCN1 | -1 | 1
COC(=O)C1=C(N)N(c2ccc(N3CCCCC3)cc2)C(=O)C1 | 2 | 4
CN(Cc1ccccc1)C1(CNC(=O)c2ccnn2C)Cc2ccccc2C1 | 13 | 1
COc1cccc(C2=N/C(=C\c3coc4ccccc4c3=O)C(=O)O2)c1 | -8 | -19

Taken from above:
NPYLR7 agonist with CC1=C(C(=O)OCCc2ccccc2)C(c2ccc(N(C)C)cc2)NC(=O)N1 (stereo unspecified) is entered as 1
NPYLR7 agonist max-min with Cc1cc(C)cc(OCC(=O)NC(C(N)=O)c2ccccc2)c1 (stereo unspecified) is entered as 1
NPYLR7 agonist with Cc1cc(C)c(C)c(S(=O)(=O)N2CCN(Cc3cc(=O)c(OCc4ccc(C(C)(C)C)cc4)co3)CC2)c1C is entered as 27

(listing goes on)
Structure | NPYLR7 agonist | NPYLR7 agonist max-min
O=C(O)c1c(Cl)nc(Br)n1-c1ccccc1 | 10&-2 | 5&-8
CCN(CC)C(=O)Cn1c(-c2ccoc2)nc(C)c1C | 20 | 10
Nc1nnc(SCc2cc3c(cc2Cl)OCO3)s1 | 4 | 0
COc1ccc(CNc2ccccc2-n2cccn2)cc1C | 12 | 11
O=C(Nc1cccc(-c2cccc(-c3ccc4c(c3)OCCO4)n2)c1)C1CCCCC1 | -7 | -10
Cn1ccnc(NC(COc2ccccc2F)c2ccccc2)c1=O (stereo unspecified) | -11 | -14
Cc1ccc(C2(O)CCN(c3cc(C(=O)O)c4ccccc4n3)CC2)nc1 | -4 | -8
O=C(Nc1cccc2ccccc12)N(C1=NCCS1)c1ccccc1 | -2 | -2
CS(=O)(=O)N1CCn2c1nc1ccccc12 | 0 | 2
c1cn(-c2ccc3cn[nH]c3c2)c(-c2ccc(C3CCCCO3)o2)n1 (stereo unspecified) | -1 | -3
COc1ccc(C(C2Sc3nc(C)nn3C2=O)N2CCN(C)CC2)cc1 (stereo unspecified) | -3 | -6
CN1CCN2CCN(Cc3cccc4nsnc34)CC2C1=O (stereo unspecified) | 19 | 13
Cc1cccc(C(C)NC(=O)NCCS(C)(=O)=O)c1C (stereo unspecified) | 10 | 9
CC(=O)c1ccc(N2CCN(C(=O)C3CCCN3C(=O)OC(C)(C)C)CC2)cc1 (stereo unspecified) | 0 | 2
Cc1noc(C(C)S(=O)Cc2ccc(F)cc2Cl)n1 (stereo unspecified) | 9 | 5
CN1CCCC1=NS(=O)(=O)c1ccc(NC(=O)C2CC(=O)Nc3ccccc32)cc1 (stereo unspecified) | 0 | -3
c1ccc2c(NCC3CCCO3)nc(N3CCCCC3)nc2c1 (stereo unspecified) | 0 | 0
Cc1cccc(N2C(=O)c3cccc4cccc(c34)C2=O)c1 | 4 | 5
Cc1ccc(C(C)(C)C)cc1S(=O)(=O)Nc1ncnc2sccc12 | 0 | -1
S=c1[nH]nc(-c2snnc2-c2ccccc2)n1CC1CCCO1 (stereo unspecified) | -8 | -12
Cc1ccc(CN2CCC(CNC(=O)C3CCNCC3)C2)c(C)c1F (stereo unspecified) | 1 | -4
O=C(CN1CCCC(CCc2ccccc2C(F)(F)F)C1)N1CCOCC1 (stereo unspecified) | 10 | 7
Cc1noc(CN(C)C(=O)CSC23CC4CC(CC(C4)C2)C3)n1 | 1 | -3
CC(C)CN(C)Cc1nc2c(cnn2-c2ccccc2)c(=O)[nH]1 | -19 | -23
O=C(Nc1ncccc1OC(F)F)c1ccccn1 | 3 | -1
CCCCS(=O)(=O)N1CCN(c2cc(S(=O)(=O)N(C)c3ccc(OC)cc3)ccc2OC)CC1 | -6 | -12
CC=CCn1c(NC)nc2c1c(=O)[nH]c(=O)n2C | 0 | -2
CSc1cccc(NC(=O)CN2CCCCC2)c1 | -3 | -5
CCNC(=O)CSc1ncnc2c1nnn2CC | 0 | 33
O=C1CCC(C(=O)N2CCN(C3CCCCC3)C(=O)C2)CN1CCc1ccc(Cl)cc1 (stereo unspecified) | 0 | -2
COc1ccc(-n2nc(C(=O)O)c(=O)n(Cc3cccc(F)c3)c2=O)cc1OC | 25 | 18
COc1ccc(-c2cc(-c3ccccc3)nc(SCC(=O)Nc3nccs3)c2C#N)cc1 | 1 | 1
CCCc1[nH]n(-c2ccc(Cl)c(Cl)c2)c(=O)c1C1=C([n+]2ccccc2)C(=O)N(C(C)C)C1=O | -7 | -5
Cc1cccc(COC(CN2CCN(C(=O)c3ccco3)CC2)c2ccc(Cl)cc2)c1 (stereo unspecified) | 5 | 1
Cc1ccc(C)c(Cn2c(CO)nc3ccccc32)c1 | -5 | -3
C/C=C(\C)C(=O)N1CCN(c2nc3nccc(-c4ccc(N5CCOCC5)cc4)n3n2)CC1 | 4 | 0
CC(=O)OC(C(=O)N1CCc2ccccc2C1c1ccc(F)cc1)c1ccccc1 (stereo unspecified) | -3 | 2
Cc1cc(C)n(CCNC(C)COc2ccccc2)c(=O)n1 (stereo unspecified) | 10 | 8
CC(C)CNC(CC(=O)Nc1cc(Cl)ccc1Cl)C(=O)O (stereo unspecified) | 4 | 3
CN(Cc1ccccc1)c1ccc([N+](=O)[O-])cc1S(=O)(=O)N1CCOCC1 | -4 | -3
CNC(=O)c1cccc(NC(=O)c2ccc(-n3cccc3)cc2C)c1C | 1 | 8
